Marburg entry inh = blocks Marburg virus binding to or entry into cells | 1.8% of 300,000 active | Marburg virus pseudotyped entry inhibition, cell reporter; control for the full effect not named in the record; about a third of the inactives were read at about 46 µM | AID 540276 | Potency, µM (top dose mostly 37.8 µM), inactives show top-dose activity change, negative = inhibition, hits mostly inhibitors; active = well fitted inhibition curve with a large enough effect; inconclusive = small, poorly fitted or top-dose-only effect, or effect the other way; inactive = flat fitted curve, though single readings scatter; tested in HEK293 cells; about a fifth of its hits are not listed in these tables; also: % is scaled to controls: 0 for no effect and ±100 for the full control effect; luciferase read-out
Lassa entry inh = blocks Lassa virus binding to or entry into cells. Lassa virus pseudotype entry inhibition, cell reporter; control for the full effect not named in the record. Potency, µM (highest dose often 37.9 µM), for inactives: at the highest dose activity change, negative = inhibition, usual class: inhibitors. 1.2% of 300,000 active. AID 540256; active means well fitted inhibition curve with a large enough effect; inconclusive means small, poorly fitted or top-dose-only effect, or effect the other way; inactive means flat fitted curve, though single readings scatter; tested in HEK293 cells; also: % is scaled to controls: 0 for no effect and ±100 for the full control effect; nearly all actives have a fitted effect of over 50% in size; luciferase read-out
RE007 growth inh = less growth of the S. pombe RE007 Vpr strain | 0.21% of 360,000 active | S. pombe RE007 Vpr strain, BacTiter-Glo ATP luminescence, 24 h; control for the full effect not named in the record | AID 651644 | Potency, µM (doses to about 92.2 µM), without a hit: at the highest dose activity change, negative = less growth; active = well fitted falling curve with a large enough effect; inconclusive = small, poorly fitted or top-dose-only effect; inactive = no such curve, though single readings can be large or run the other way;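 also: % is scaled to controls: 0 for no effect and ±100 for the full control effect; nearly all actives have a fitted effect of over 50% in size; the assay follows cell death caused by Vpr and the record does not say whether a fall means rescue or toxicity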
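Fission yeast RE007 carrying one integrated HIV-1 vpr copy, seeded at OD 0.01 in PMG+AL medium with 23 nL pinned compound. Grown 24 h at 30 degrees; viability read by BacTiter-Glo luminescence after 5 min.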
Cruzain inh noDet = cruzain (T. cruzi) inhibition without detergent; 2.3% of 200,000 active; Potency, µM, for the others: max response, negative = inhibition, usual class: inhibitors; purified cruzain, Z-FR-AMC fluorescence, no detergent; P25779; active = well fitted curve in the direction sought with a large enough effect; inconclusive = small, poorly fitted or top-dose-only effect, or another doubt; inactive = no such curve, though single readings can be large; an effect the other way counts as inactive or inconclusive;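 also: plate controls were enzyme without inhibitor for no effect and buffer without enzyme for full effect; nearly all actives have a fitted effect of over 40% in size; top concentration of the series not given in the record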
Target sequence (P25779 123-467 limits assumed): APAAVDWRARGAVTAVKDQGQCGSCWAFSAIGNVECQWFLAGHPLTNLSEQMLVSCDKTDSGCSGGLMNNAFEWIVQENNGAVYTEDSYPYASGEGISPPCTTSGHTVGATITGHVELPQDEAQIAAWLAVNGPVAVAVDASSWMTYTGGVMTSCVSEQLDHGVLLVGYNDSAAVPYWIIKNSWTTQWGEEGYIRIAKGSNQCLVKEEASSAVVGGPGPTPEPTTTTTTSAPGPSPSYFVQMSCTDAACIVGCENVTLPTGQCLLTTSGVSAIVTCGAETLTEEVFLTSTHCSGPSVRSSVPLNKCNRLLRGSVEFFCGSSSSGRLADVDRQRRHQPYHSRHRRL
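Detergent-free condition (0.00005% Triton X-100) in acetate buffer pH 5.5 with DTT. 1.5 nM enzyme and compound were pre-mixed 15 min, then 2 uM Z-FR-AMC substrate added; reaction progress from fluorescence change between first and third reads (60 s).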
Cruzain inh Det = inhibitors of Trypanosoma cruzi cruzain with detergent | Potency, µM, for the others: max response, negative = inhibition, hits mostly inhibitors | P25779 | purified cruzain, Z-FR-AMC fluorescence, 0.01% Triton | 0.43% of 200,000 active; active = well fitted curve in the direction sought with a large enough effect; inconclusive = small, poorly fitted or top-dose-only effect, or another doubt; inactive = no such curve, though single readings can be large; an effect the other way counts as inactive or inconclusive;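 also: plate controls were neutral wells for no effect and buffer without enzyme for full effect; nearly all actives have a fitted effect of over 40% in size; top concentration of the series not given in the record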
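Enzyme 1.5 nM, Z-FR-AMC 2 uM, NaOAc 100 mM pH 5.5, DTT 5 mM, Triton X-100 0.01%; 15 min RT compound preincubation; kinetic ex360/em450, 60 s delta.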
2A StopGo = FMDV 2A StopGo reporter, luciferase signal; human cells with a luciferase reporter of 2A StopGo recoding; control for the full effect not named in the record; Potency, µM (doses to about 57.9 µM), for inactives: at the top dose signal change, negative = less light; 1.2% of 410,000 active; active = well fitted falling curve with a large enough effect; inconclusive = small, poorly fitted or top-dose-only effect; inactive = no such curve, though single readings can be large or run the other way; tested in HEK293T cells; also: % is scaled to controls: 0 for no effect and ±100 for the full control effect; nearly all actives have a fitted effect of over 45% in size; luciferase light after 4 h
SARS PLpro yeast = inhibitors of SARS-CoV papain-like protease in yeast | 0.19% of 330,000 active | AID 485353 | Potency, µM (doses to about 32.9 µM), for inactives: top-dose activity, positive = growth rescue | S. cerevisiae expressing SARS-CoV PLpro, growth rescue; control for the full effect not named in the record; also: 0% is about no effect; nearly all actives have a fitted effect of over 55% in size; growth read by luminescence after 48 h
NS1 inh = inhibitors of influenza NS1 protein function; S. cerevisiae slowed by influenza A NS1, growth recovery by OD600; Potency, µM (highest dose often 46.1 µM), without a hit: at the highest dose activity, positive = more growth; 0.4% of 270,000 active; also: actives are rising curves; nearly all actives have a fitted effect of over 50% in size
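OD600 was taken as the measure of yeast growth restored by compound in an NS1-expressing S. cerevisiae strain. Cells had been washed out of glucose medium and diluted 1:100 into galactose -URA medium, pH 6.0.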
Active calls of the source: *; ? = inconclusive; . = not tested or not shown; & = joins results of further samples; [ ] = remark or other dose. Unless noted, calls follow the shape of the dose curve; as a rule, active means well fitted rising curve with a large enough effect; inconclusive means small, poorly fitted or top-dose-only effect; inactive means no such curve, though single readings can be large or run the other way. Potency is read from the fitted curve at half-maximal effect.

SMILES	Marburg entry inh	Lassa entry inh	RE007 growth inh	Cruzain inh noDet	Cruzain inh Det	2A StopGo	SARS PLpro yeast	NS1 inh
COc1ccccc1NS(=O)(=O)c1ccc(C)c(C(=O)NCC(c2ccco2)N2CCCCC2)c1 (configuration not stated)	-24.6%	-27.2%	-7.9%	.	.	12.2%	6.0%	-5.3%
Cc1cc(C)c(S(=O)(=O)c2ccccc2C)c(N(C)C)n1	3.2%	8.1%	14.3%	-15.1%	1.6%	-12.4%	-5.7%	-12.4%
Cc1nc(C(F)(F)F)ccc1C(=O)NCC(O)c1ccccc1 (configuration not stated)	.	.	-9.8%	.	.	43.2%[activator]	0.2%	-3.0%
CN1CCC(N(C)C(=S)NCCc2ccccc2)CC1	5.4%[46.1 µM]	?	-2.3%	.	.	12.8%	-0.2%	4.4%
O=C(CSc1nc2c([nH]c3ccccc32)c(=O)n1-c1ccc(F)cc1)N1CCCCC1	.	20.4%[46.1 µM]	.	-1.3%	-1.5%	-5.7%	.	.
Cc1ccnc(SCC(=O)Nc2sccc2C#N)n1	.	.	9.2%	.	.	12.2%	-2.9%	-3.8%
Cc1c(Cl)cnc(NC(=O)COC(=O)c2cc3c(s2)CCC(C)C3)c1Cl (configuration not stated)	-5.6%	.	10.1%	?	-1.1%	-10.9%	14.7%	-4.8%
CCSc1nc(-c2ccccc2)nc2c1CCCC2	?	0.0%	-13.6%	.	.	-9.5%	-0.2%	-1.5%
O=C(c1ccccc1)[C@@H]1[C@@H]2C(=O)N(c3ccc(F)cc3)C(=O)[C@@H]2C2CCCN21 (some centres not stated)	.	.	-12.6%	.	.	-16.3%	-2.6%	-4.4%
O=[N+]([O-])c1cccc(/C=C/c2nc(C=Nc3ccccc3)c(O)o2)c1	-14.6%	-4.4%	-6.2%	12.6µM*	0.4%	-2.9%	4.4%	-1.7%
CCS(=O)(=O)N1CCc2cc(OC)c(OC)cc2C1	-0.4%	14.6%	0.2%	-3.8%	-2.6%	13.7%	23.6%	8.7%
O=C(NCc1ccco1)c1ccc2[nH]c(=O)c(=O)[nH]c2c1	.	.	1.4%	.	.	?	11.4%	-7.8%
Cc1nn(-c2ccccc2)c(Cl)c1/C=C/C(=O)c1ccc(O)cc1	12.4%	?	2.7%	4.0%	-10.2%	-10.4%	9.3%	4.9%
CCOC(=O)c1cccc(NC(=O)C2COc3ccc(OC)cc3C2)c1 (configuration not stated)	.	-22.1%[46.1 µM]	.	5.6%	-6.1%	-23.5%	.	.
CC1(C)CC(=O)C2=C(C1)NC(=O)NC2c1ccccc1Cl (configuration not stated)	-0.3%[46.1 µM]	22.4%[46.1 µM]	1.9%	.	.	-7.9%	.	.
CC(=O)N(C)c1ccc(C=C2C=Cc3ccccc32)cc1	?	?	-8.0%	.	.	-56.5%	.	.
O=C(O)C1CN2CCC1CC2 (configuration not stated)	8.1%	7.7%	20.4%	2.8%	1.3%	-3.2%	-2.2%	-15.1%
CCOC(=O)C1(CCOc2ccccc2)CCN(CCCn2cccn2)CC1	?	?	-26.6%	.	.	-20.0%	0.4%	-1.8%
c1ccc(CNc2ncnc3ccccc23)cc1	?	?	-5.1%	8.8%	0.1%	?	1.5%&5.0%	-9.3%&-10.7%
CCOC(=O)c1ccc(NC(=O)c2nc[nH]c2C(=O)N[C@@H](Cc2ccccc2)C(=O)OC(C)(C)C)cc1	-1.4%	.	3.4%	.	.	?	4.4%	-1.1%
CCS(=O)(=O)c1ccc2oc(Nc3ccccc3Cl)nc2c1	?	?	-27.4%	.	.	34.7%	-4.7%	1.1%
CCN(CC)c1ccc(NC(=O)CN2C(=O)CSc3ncccc32)c(C)c1	.	.	-0.3%	-19.8%	4.1%	?	5.8%	-0.2%
C/C(CC(=O)Nc1ccc(N(C)C)cc1)=N\NC(=O)Cc1csc(N)n1	3.9%	3.7%	0.6%	-0.8%	-3.3%	0.1%	17.8µM*	?
CC(C)C1N=C2c3ccccc3N=C(SCC(=O)NCc3ccc(Cl)cc3)N2C1=O (configuration not stated)	.	17.5%[46.1 µM]	.	0.2%	-3.0%	-0.2%	.	.
Cc1nn(-c2ccccn2)c(C)c1Oc1ccccc1O	10.0%	?	8.3%	6.0%	11.7%	9.6%	10.2%	-10.8%

(continued)
SMILES	Marburg entry inh	Lassa entry inh	RE007 growth inh	Cruzain inh noDet	Cruzain inh Det	2A StopGo	SARS PLpro yeast	NS1 inh
COc1ccc(NS(=O)(=O)c2ccc(Cl)c(NC(=O)c3cccnc3Cl)c2)cc1	.	.	-2.4%	.	.	8.3%	-0.6%	-1.2%
O=C(NC1CCCC1)C(c1cccnc1)N(C(=O)c1csnn1)C1CC1 (configuration not stated)	-11.2%	5.7%	-2.5%	-6.4%	-0.8%	-20.3%	2.9%	3.5%
Cc1ccccc1C(=O)N1CCC(n2nccc2NC(=O)C2CC2)CC1	7.0%	?	?	.	.	-17.3%	-0.1%	0.8%
COc1ccc(S(=O)(=O)N2CC(O)CC2C(=O)OCc2nc3sc(C)c(C)c3c(=O)[nH]2)cc1 (configuration not stated)	?	?	9.2%	17.6%	-3.1%	0.8%	8.8%	-2.0%
Cc1ccc(CNC(=O)CN2C(=O)C3CCCCN3c3ccc(C(=O)N4CCCC4)cc32)cc1 (configuration not stated)	.	3.6%[46.1 µM]	.	1.7%	-2.3%	30.1%[activator]	.	.
CCNC(=O)C1CCN(Cc2cc3ccccc3n2Cc2ccc(C)cc2)CC1	.	-21.8%[46.1 µM]	.	17.4%	-4.7%	11.5%	.	.
CSc1ccc(CCNC(=O)Cn2ncc3c([nH]c4ccccc43)c2=O)cc1	13.6%&13.6%[46.1 µM]	?	-17.7%	.	.	21.5%&5.8%	1.1%	3.5%
c1ccc(-c2nccc(-c3ccc(-n4cnc5ccccc54)cc3)n2)cc1	-23.9%	-16.2%	-17.7%	15.8µM*	-1.7%	-19.2%	-3.5%	1.6%
Clc1ccc(COn2c(-c3ccc(Cl)cc3Cl)nc3ncccc32)cc1	?	?	-13.3%	8.2%	-3.8%	?	-48.1%	-41.8%
CCOc1ccc(C(=O)NCCc2sc(-c3ccc(OC)c(OC)c3)nc2C)cc1	.	?	.	?	-5.6%	27.7%	.	.
CN(CC(=O)Nc1ccccc1C(F)(F)F)CC(=O)N1CCCCCC1	-2.6%	-11.9%	-13.8%	.	.	9.0%	-3.4%	.
O=C1NC(=O)N(c2ccccc2)C(=O)/C1=C/c1ccc([N+](=O)[O-])s1	-14.3%[46.1 µM]	-0.8%[46.1 µM]	28.2µM*	.	.	?	3.5%	.
COn1c2c(c3c4nonc4ccc31)CCCC2	1.6%	?	-15.8%	-3.2%	-9.2%	.	-10.8%	-18.1%
CCOc1cccc(CN2CCC(n3nccc3NC(=O)CCCc3ccccc3)CC2)c1	.	.	2.7%	.	.	-16.0%	5.9%	2.0%
C=Cc1ccc(C(=O)NC2CCCN(Cc3ccccc3F)C2)cc1 (configuration not stated)	?	-16.5%	0.3%	.	.	15.8%	1.0%	10.9%
COc1ccc(-c2cc(C(=O)c3c(N)n(C)c(=O)n(C)c3=O)c3ccccc3n2)cc1OC	.	.	3.8%	.	.	44.4%[activator]	1.8%	-24.0%
Cc1ccc(NC(=O)c2cccs2)cc1S(=O)(=O)Nc1cccc(Cl)c1	?	2.2%	9.9%	5.4%	-9.2%	-62.0%	-44.3%	5.1%
COc1ccc(NC(=O)NNC(=O)COc2ccc3cc(Br)ccc3c2)cc1OC	.	.	-16.3%	.	.	3.9%	0.5%	7.4%
O=C(COc1ccc(Br)cc1)Nc1ccc(Cl)cc1C(=O)c1ccccc1	.	-9.6%[46.1 µM]	.	10.2%	1.1%	8.5%	.	.
O=C(O)C1C2C=CC(O2)C1C(=O)NCc1ccc(Cl)cc1 (configuration not stated)	?	6.1%	35.5µM*	4.6%	-3.3%	?	4.0%	-7.2%
CC(C)OC(=O)c1ccc2nc3ccccc3nc2c1	?	?	-23.0%	.	.	-40.7%	-3.1%	-9.9%
CCc1nc2ccc(C(=O)NCc3ccco3)cc2nc1CC	-25.9%[46.1 µM]	-8.2%	-2.8%	-12.0%	-11.2%	1.8%	-4.7%	-9.2%
CCOC(=O)c1sc(-c2ccc(C)cc2)c(C#N)c1C	4.7%[46.1 µM]	5.2%	-6.0%	0.8%	-12.2%	41.2%[activator]	-1.0%	-4.2%
CCS(=O)(=O)c1ccccc1C(=O)Nc1ccc(-c2nc3ccccc3s2)cc1	.	-21.4%[46.1 µM]	.	26.7%	-9.1%	2.8%	.	.
CN(C(=O)CSc1nc2ccc(NC(=O)c3cccs3)cc2s1)c1ccccc1	-25.1%[46.1 µM]	?	.	-14.9%	-7.1%	?	.	.
COCCCn1c(=O)c2sccc2n2c(CCCC(=O)NC3CCC(C)CC3)nnc12 (configuration not stated)	.	0.2%[46.1 µM]	.	-5.5%	0.4%	-15.6%	.	.
Cc1nc2ccccn2c1C(=O)/C=C/c1cccc([N+](=O)[O-])c1	.	.	-12.1%	.	.	6.31µM*	1.2%	0.1%
COc1ccccc1CN1CC(C(=O)NCc2cc(F)ccc2C)CCC1=O (configuration not stated)	?	16.9%[46.1 µM]	-3.0%	.	.	29.7%	-5.4%	-0.2%
O=c1[nH]c(=O)n(CCc2ccccc2)c(O)c1C=NCCCn1ccnc1	1.8%	-18.7%	-12.9%	-3.1%	0.9%	-29.3%	-0.7%	0.4%

One compound at a time, from the list above. Values in the order: Marburg entry inh, Lassa entry inh, RE007 growth inh, Cruzain inh noDet, Cruzain inh Det, 2A StopGo, SARS PLpro yeast, NS1 inh
O=C(O)C1C2C=CC(O2)C1C(=O)NCc1ccc(Cl)cc1 (configuration not stated) reads ?, 6.1%, 35.5µM*, 4.6%, -3.3%, ?, 4.0%, -7.2%
O=C1NC(=O)N(c2ccccc2)C(=O)/C1=C/c1ccc([N+](=O)[O-])s1 reads -14.3%[46.1 µM], -0.8%[46.1 µM], 28.2µM*, ., ., ?, 3.5%, .

Screens (PubChem BioAssay)

The order is random. About 4.7% of those tested had a hit in this group.
